VACV Venus inh – vaccinia inhibition (Venus reporter); Vaccinia virus Venus reporter expression, fluorescence; Potency, µM (titrated, usually from 36.5 µM), for the others: top-dose activity change, negative = inhibition, most hits filed as inhibitors; 330,000 tested, 0.46% active; AID 720580; active means well fitted inhibition curve with a large enough effect; inconclusive means small, poorly fitted or top-dose-only effect; inactive means no such curve, though single readings can be large or run the other way; tested in A549 cells; further: nearly all actives have a fitted effect of over 30% in size; inactives centre near -10
VACV mCherry inh – vaccinia inhibition (mCherry reporter) | Vaccinia virus mCherry reporter infection, fluorescence; about a quarter of the inactives have no number | Potency, µM (top dose mostly 36.5 µM), for inactives: at the highest dose activity change, negative = inhibition, hits mostly inhibitors | 310,000 tested, 0.63% active; active = well fitted inhibition curve with a large enough effect; inconclusive = small, poorly fitted or top-dose-only effect; inactive = no such curve, though single readings can be large or run the other way; tested in A549 cells; further: nearly all actives have a fitted effect of over 35% in size; inactives centre near -10
* = called active by the depositor; i = inactive; ? = inconclusive; . = not tested or not shown; & = joins results of further samples; [ ] = dose if it differs, or a comment. On the % scale 0 is the no-effect control and ±100 the full control effect; potency means the concentration at half of the fitted maximal effect. These rows are one share of the data; count on the stated rates, not on these rows.

1: CCC(Sc1nc2ccccc2c2nc(CCn3cncc3C)nn12)C(=O)Nc1cccc(OC)c1 (configuration not stated)
  VACV Venus inh: ?
  VACV mCherry inh: ?
2: COc1ccc(-n2[nH]c3c(cnc4ccccc43)c2=O)cc1
  VACV Venus inh: 0%
  VACV mCherry inh: -1%
3: C#C[C@@]1(O)CCC2C3CCC4=CC(=O)CCC4C3CC[C@@]21CC (some centres not stated)
  VACV Venus inh: -5%
  VACV mCherry inh: -14%
4: COc1c(O)cc2c(c1O)[C@@H]1OC(CO)C(O)C(O)[C@H]1OC2=O (some centres not stated)
  VACV Venus inh: -10%
  VACV mCherry inh: -13%
5: CCCCOc1ccc(CC(=O)NO)cc1
  VACV Venus inh: -10%&-12%&-11%
  VACV mCherry inh: -12%&-9%
6: CC(=O)Oc1ccc2c(c1)CC[C@@H]1[C@@H]2CC[C@]2(C)[C@@H](O)CC[C@@H]12
  VACV Venus inh: -9%
  VACV mCherry inh: i
7: CCOC(=O)NNc1nncc2ccccc12
  VACV Venus inh: -8%&-15%
  VACV mCherry inh: -2%
8: Cc1cccc(Nc2cc(Cl)nc(SCC(=O)O)n2)c1C
  VACV Venus inh: -12%
  VACV mCherry inh: -15%[3.33 µM]
9: O=C(O)/C=C/c1ccc(O)cc1
  VACV Venus inh: -20%
  VACV mCherry inh: -2%
10: COc1c(O)cc2c(c1O)[C@@H]1O[C@H](CO)[C@@H](O)[C@H](O)C1OC2=O (some centres not stated)
  VACV Venus inh: 5%
  VACV mCherry inh: i

11: O=C(O)CNC(=O)c1ccccc1
  VACV Venus inh: -12%
  VACV mCherry inh: i
12: CC(C)(CO)C(O)C(=O)NCCCO (configuration not stated)
  VACV Venus inh: -11%
  VACV mCherry inh: i
13: Cn1c(=O)n(-c2ccc(C(C)(C)C#N)cc2)c2c3cc(-c4cnc5ccccc5c4)ccc3ncc21
  VACV Venus inh: ?
  VACV mCherry inh: ?
14: CC12CCC(=O)C=C1CCC1C2CCC2(C)C1CC[C@]2(O)C(=O)CO (some centres not stated)
  VACV Venus inh: -11%
  VACV mCherry inh: i
15: CN(C)CCOc1ccccc1Cc1ccccc1
  VACV Venus inh: -10%
  VACV mCherry inh: i
16: COc1ccc(/C=N/NC(=O)c2ccncc2)cc1OC
  VACV Venus inh: -1%
  VACV mCherry inh: -10%
17: Cc1cc(C)cc(OCC2CNC(=O)O2)c1 (configuration not stated)
  VACV Venus inh: -10%&-15%
  VACV mCherry inh: -2%&-12%
18: CNc1c2c(nn1C)CCCC2
  VACV Venus inh: -7%
  VACV mCherry inh: 0%
19: C[C@@H]1C[C@H]2[C@@H]3C[C@H](F)C4=CC(=O)C=C[C@]4(C)[C@@]3(F)[C@@H](O)C[C@]2(C)[C@@]1(O)C(=O)COC(=O)C(C)(C)C
  VACV Venus inh: -13%
  VACV mCherry inh: -28%
20: CCn1cc(C(=O)O)c(=O)c2cc(F)c(N3CCNCC3)nc21
  VACV Venus inh: -14%&0%
  VACV mCherry inh: -11%

Filtered by structure, those above with a halogen.
8: Cc1cccc(Nc2cc(Cl)nc(SCC(=O)O)n2)c1C
  VACV Venus inh: -12%
  VACV mCherry inh: -15%[3.33 µM]
19: C[C@@H]1C[C@H]2[C@@H]3C[C@H](F)C4=CC(=O)C=C[C@]4(C)[C@@]3(F)[C@@H](O)C[C@]2(C)[C@@]1(O)C(=O)COC(=O)C(C)(C)C
  VACV Venus inh: -13%
  VACV mCherry inh: -28%
20: CCn1cc(C(=O)O)c(=O)c2cc(F)c(N3CCNCC3)nc21
  VACV Venus inh: -14%&0%
  VACV mCherry inh: -11%

Continued.
21: Nc1ncnc2nc[nH]c12
  VACV Venus inh: 2%&8%&15%&11%
  VACV mCherry inh: -2%&24%&-1%
22: Nc1c2c(nc3ccccc13)CCCC2O (configuration not stated)
  VACV Venus inh: -14%&-8%
  VACV mCherry inh: -12%&-24%
23: Cc1ccnc(NC(c2cccc(O)c2)c2ccc3ccc(C)nc3c2O)c1 (configuration not stated)
  VACV Venus inh: -7%
  VACV mCherry inh: -15%
24: CCOc1ccc(NC(=O)Cn2cc(C(=O)c3cccs3)c3ccccc32)cc1
  VACV Venus inh: -11%
  VACV mCherry inh: -4%
25: COc1cc([C@H]2Oc3cc([C@H]4Oc5cc(O)cc(O)c5C(=O)[C@@H]4O)ccc3O[C@@H]2CO)ccc1O
  VACV Venus inh: -12%
  VACV mCherry inh: -24%
26: COC(=O)C1=CO[C@@H](OC2OC(CO)C(O)C(O)C2O)[C@@H]2[C@@H](C)[C@@H](O)C[C@H]12 (some centres not stated)
  VACV Venus inh: -6%
  VACV mCherry inh: -6%
27: C=C1c2cccc(O)c2C(O)=C2C(=O)[C@]3(O)C(O)=C(C(N)=O)C(=O)[C@@H](N(C)C)[C@@H]3[C@@H](O)[C@H]12
  VACV Venus inh: -6%
  VACV mCherry inh: -12%
28: COc1ccccc1OCCNCC(O)COc1cccc2[nH]c3ccccc3c12 (configuration not stated)
  VACV Venus inh: -18%
  VACV mCherry inh: -16%
29: Cc1ccccc1C(=O)Nc1cccc(-c2nc3cccnc3s2)c1
  VACV Venus inh: -9%
  VACV mCherry inh: i
30: CC1CC2C3CC(F)C4=CC(=O)C=C[C@@]4(C)[C@@]3(F)C(O)C[C@]2(C)[C@]1(O)C(=O)COC(=O)C(C)(C)C (some centres not stated)
  VACV Venus inh: -14%
  VACV mCherry inh: -19%

Quoted from above: compounds 14 to 30
14: CC12CCC(=O)C=C1CCC1C2CCC2(C)C1CC[C@]2(O)C(=O)CO (some centres not stated)
  VACV Venus inh: -11%
  VACV mCherry inh: i
15: CN(C)CCOc1ccccc1Cc1ccccc1
  VACV Venus inh: -10%
  VACV mCherry inh: i
16: COc1ccc(/C=N/NC(=O)c2ccncc2)cc1OC
  VACV Venus inh: -1%
  VACV mCherry inh: -10%
17: Cc1cc(C)cc(OCC2CNC(=O)O2)c1 (configuration not stated)
  VACV Venus inh: -10%&-15%
  VACV mCherry inh: -2%&-12%
18: CNc1c2c(nn1C)CCCC2
  VACV Venus inh: -7%
  VACV mCherry inh: 0%
19: C[C@@H]1C[C@H]2[C@@H]3C[C@H](F)C4=CC(=O)C=C[C@]4(C)[C@@]3(F)[C@@H](O)C[C@]2(C)[C@@]1(O)C(=O)COC(=O)C(C)(C)C
  VACV Venus inh: -13%
  VACV mCherry inh: -28%
20: CCn1cc(C(=O)O)c(=O)c2cc(F)c(N3CCNCC3)nc21
  VACV Venus inh: -14%&0%
  VACV mCherry inh: -11%
21: Nc1ncnc2nc[nH]c12
  VACV Venus inh: 2%&8%&15%&11%
  VACV mCherry inh: -2%&24%&-1%
22: Nc1c2c(nc3ccccc13)CCCC2O (configuration not stated)
  VACV Venus inh: -14%&-8%
  VACV mCherry inh: -12%&-24%
23: Cc1ccnc(NC(c2cccc(O)c2)c2ccc3ccc(C)nc3c2O)c1 (configuration not stated)
  VACV Venus inh: -7%
  VACV mCherry inh: -15%
24: CCOc1ccc(NC(=O)Cn2cc(C(=O)c3cccs3)c3ccccc32)cc1
  VACV Venus inh: -11%
  VACV mCherry inh: -4%
25: COc1cc([C@H]2Oc3cc([C@H]4Oc5cc(O)cc(O)c5C(=O)[C@@H]4O)ccc3O[C@@H]2CO)ccc1O
  VACV Venus inh: -12%
  VACV mCherry inh: -24%

26: COC(=O)C1=CO[C@@H](OC2OC(CO)C(O)C(O)C2O)[C@@H]2[C@@H](C)[C@@H](O)C[C@H]12 (some centres not stated)
  VACV Venus inh: -6%
  VACV mCherry inh: -6%
27: C=C1c2cccc(O)c2C(O)=C2C(=O)[C@]3(O)C(O)=C(C(N)=O)C(=O)[C@@H](N(C)C)[C@@H]3[C@@H](O)[C@H]12
  VACV Venus inh: -6%
  VACV mCherry inh: -12%
28: COc1ccccc1OCCNCC(O)COc1cccc2[nH]c3ccccc3c12 (configuration not stated)
  VACV Venus inh: -18%
  VACV mCherry inh: -16%
29: Cc1ccccc1C(=O)Nc1cccc(-c2nc3cccnc3s2)c1
  VACV Venus inh: -9%
  VACV mCherry inh: i
30: CC1CC2C3CC(F)C4=CC(=O)C=C[C@@]4(C)[C@@]3(F)C(O)C[C@]2(C)[C@]1(O)C(=O)COC(=O)C(C)(C)C (some centres not stated)
  VACV Venus inh: -14%
  VACV mCherry inh: -19%

(more compounds)
31: CCCOC(=O)c1ccc(O)cc1
  VACV Venus inh: -5%
  VACV mCherry inh: i
32: CC(=O)Nc1ccccc1
  VACV Venus inh: -15%&-12%
  VACV mCherry inh: -1%&0%
33: Cn1c(=O)c2c(ncn2CCO)n(C)c1=O
  VACV Venus inh: -11%&-4%
  VACV mCherry inh: -8%
34: Cc1cccc(C)c1NC(=O)C1CCCCN1C (configuration not stated)
  VACV Venus inh: -20%&-7%
  VACV mCherry inh: -21%
35: COc1cc2nc(N3CCN(C(=O)[C@H]4COc5ccccc5O4)CC3)nc(N)c2cc1OC
  VACV Venus inh: -17%
  VACV mCherry inh: i
36: COc1ccc2ccc(=O)oc2c1
  VACV Venus inh: -12%&-4%
  VACV mCherry inh: -17%&-5%
37: CCCCCCc1ccc(O)cc1O
  VACV Venus inh: -29%
  VACV mCherry inh: -13%
38: CC1(C)OC2CC3C4CC(F)C5=CC(=O)C=C[C@@]5(C)[C@@]4(F)C(O)C[C@@]3(C)[C@]2(C(=O)CO)O1 (some centres not stated)
  VACV Venus inh: -9%
  VACV mCherry inh: -2%
39: NC1(c2ccc(-c3nc4ccn5c(=O)[nH]nc5c4cc3-c3ccccc3)cc2)CCC1
  VACV Venus inh: 10µM*
  VACV mCherry inh: 7.9µM*
40: CCCCC1C(=O)N(c2ccccc2)N(c2ccccc2)C1=O
  VACV Venus inh: -10%&-7%
  VACV mCherry inh: -8%

41: COc1ccc(-c2cc(=O)c3c(O)c(OC)c(OC)c(OC)c3o2)cc1OC
  VACV Venus inh: -19%
  VACV mCherry inh: -20%
42: O=c1cc(-c2ccc(O)cc2)oc2cc(O[C@@H]3O[C@H](CO)[C@@H](O)[C@H](O)[C@H]3O[C@@H]3OC[C@](O)(CO)[C@H]3O)cc(O)c12
  VACV Venus inh: -3%
  VACV mCherry inh: i
43: CCCCCCCCCCCCCC[N+](C)(C)Cc1ccccc1
  VACV Venus inh: ?
  VACV mCherry inh: ?
44: COc1ccc2nc(NC(=O)Nc3ccccc3)sc2c1
  VACV Venus inh: -29%
  VACV mCherry inh: ?
45: Cc1cccc(NC(c2ccccc2F)c2ccc3ccc(C)nc3c2O)n1 (configuration not stated)
  VACV Venus inh: -25%
  VACV mCherry inh: ?
46: NNC(=O)CP(=O)(c1ccccc1)c1ccccc1
  VACV Venus inh: -5%
  VACV mCherry inh: -2%
47: COc1ccc(CN2CCN(C(c3ccc(F)cc3)c3ccc(F)cc3)CC2)c(OC)c1OC
  VACV Venus inh: -20%
  VACV mCherry inh: -9%
48: CC(C)[C@@H]1CC[C@@H](C)CC1=O
  VACV Venus inh: 0%
  VACV mCherry inh: i
49: Cc1ccc(Nc2nc3ccccc3c3nnc(C)n23)c(C)c1
  VACV Venus inh: -4%
  VACV mCherry inh: -14%
50: NC(N)=NC(=O)Cc1c(Cl)cccc1Cl
  VACV Venus inh: -21%
  VACV mCherry inh: -7%

51: COC(c1ccccc1)(c1ccccc1)C(Oc1nc(C)cc(C)n1)C(=O)O (configuration not stated)
  VACV Venus inh: -17%
  VACV mCherry inh: -3%
52: COc1ccc(CNC(=O)Nc2ccc3c(c2)N(C)C(=O)c2ccccc2S3)cc1OC
  VACV Venus inh: -13%
  VACV mCherry inh: -14%
53: O=C(Nc1ccc(C(=O)O)c(O)c1)c1ccccc1
  VACV Venus inh: 3%
  VACV mCherry inh: i
54: O=C1Cc2c([nH]c3ccc([N+](=O)[O-])cc23)-c2ccccc2N1
  VACV Venus inh: ?
  VACV mCherry inh: 1.3µM*
55: Cc1[nH]c2ccccc2c1/C=N/NC(N)=S
  VACV Venus inh: ?
  VACV mCherry inh: ?
56: COc1ccc(OCC(=O)Nc2cc(-c3nc4ccccc4s3)ccc2C)cc1
  VACV Venus inh: -16%
  VACV mCherry inh: -20%
57: Nc1c2ccccc2nc2ccccc12 (tested in a mixture with another compound)
  VACV Venus inh: .
  VACV mCherry inh: ?
58: COc1ccc(/C=C/C(=O)O)cc1
  VACV Venus inh: -6%
  VACV mCherry inh: -8%
59: Cc1ccc(NC(=O)Cn2c(=O)n(CCC(=O)N3CCc4ccccc4C3)c(=O)c3ccccc32)c(C)c1
  VACV Venus inh: -14%
  VACV mCherry inh: -15%
60: Cc1cccc2nc(-c3ccccn3)c(Nc3ccccc3)n12
  VACV Venus inh: ?
  VACV mCherry inh: ?
61: Cc1ccccc1Cc1c(C)nc2c(-c3ccccc3)c(C)[nH]n2c1=O
  VACV Venus inh: -21%
  VACV mCherry inh: ?

Screening data deposited in PubChem by National Center for Advancing Translational Sciences (NCATS).
